# Bioassay records: PubChem, National Center for Advancing Translational Sciences (NCATS)
# Rango-impB inh: qHTS Assay for Inhibitors of Rango (Ran-regulated importin-beta cargo) - Importin beta complex formation; Potency, µM (highest dose often 92.2 µM), for inactives: top-dose inhibition of complex formation; Rango CFP/YFP FRET sensor + importin beta, 45 min; 340,000 tested, 0.031% active; AID 540263, 2011; Importin subunit beta-1 (Homo sapiens), Q14974; active = rising FRET ratio curve, often small or poorly fitted; inconclusive = mostly compound fluorescence or quenching in the first reads; inactive = flat curves in all reads;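 also: potency is read from the fitted curve at half-maximal effect; 0% = DMSO wells and 100% = buffer wells lacking importin beta; nearly all actives have a fitted effect of over 15% in size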
# Target sequence (Q14974 whole entry, looked up): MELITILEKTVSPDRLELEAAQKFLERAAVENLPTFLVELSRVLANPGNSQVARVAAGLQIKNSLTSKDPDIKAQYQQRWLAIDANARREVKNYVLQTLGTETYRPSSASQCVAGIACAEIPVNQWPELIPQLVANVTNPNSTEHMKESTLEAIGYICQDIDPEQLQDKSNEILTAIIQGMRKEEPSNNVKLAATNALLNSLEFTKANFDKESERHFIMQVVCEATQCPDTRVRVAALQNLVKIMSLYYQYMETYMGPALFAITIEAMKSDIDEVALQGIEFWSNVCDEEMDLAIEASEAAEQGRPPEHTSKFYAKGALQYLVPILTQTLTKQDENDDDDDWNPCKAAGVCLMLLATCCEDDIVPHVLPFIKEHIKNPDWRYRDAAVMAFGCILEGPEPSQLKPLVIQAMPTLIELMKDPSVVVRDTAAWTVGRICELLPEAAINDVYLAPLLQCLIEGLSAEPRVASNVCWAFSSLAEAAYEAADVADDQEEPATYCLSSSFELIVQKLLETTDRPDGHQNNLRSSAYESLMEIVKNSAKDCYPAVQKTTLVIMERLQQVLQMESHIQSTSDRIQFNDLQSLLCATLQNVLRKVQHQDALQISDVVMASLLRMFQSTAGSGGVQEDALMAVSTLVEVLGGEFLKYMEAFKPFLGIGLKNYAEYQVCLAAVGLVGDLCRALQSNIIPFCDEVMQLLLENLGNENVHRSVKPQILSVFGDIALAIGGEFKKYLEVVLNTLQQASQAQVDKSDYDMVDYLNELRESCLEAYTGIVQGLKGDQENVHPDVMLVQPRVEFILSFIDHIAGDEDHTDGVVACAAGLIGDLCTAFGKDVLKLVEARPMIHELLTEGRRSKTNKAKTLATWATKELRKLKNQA
#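 FRET biosensor (snurportin 1 IBB flanked by EYFP and cerulean), 50 nM, with compound 5 min, then 0.125 microM importin beta in PBS, 1 mM DTT, 0.02% Tween-20, 0.1% BSA. CFP/YFP ratio read after 45 min at room temperature; pre-read flags interference.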
# GLA inh pH 4.5: qHTS Assay for Inhibitors of Human alpha-Galactosidase at pH 4.5; activity change, negative = inhibition, % at 105 µM; Alpha-galactosidase A (Homo sapiens), P06280; 230,000 tested, under 10 active; purified enzyme, 4-MU-alpha-Gal fluorescence, pH 4.5; inconclusive = small, poorly fitted or top-dose-only inhibition, or a rising curve; inactive = flat fitted curve, though single readings scatter; no compound was filed as active;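 also: 0% = full activity with enzyme and -100% = basal without enzyme; dose as in the result columns while the protocol names 77 µM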
# miR-21 FLuc: qHTS Assay for Modulators of miRNAs and/orActivators of miR-21 | HeLa miR-21 FLuc reporter, luciferase, 48 h | Potency, µM (titrated, usually from 38.3 µM), for inactives: top-dose reporter change, positive = more light | 340,000 tested, under 10 active | AID 2288, 2010; active = well fitted rising curve with a large enough effect; inconclusive = small, poorly fitted or top-dose-only effect; inactive = no such curve, though single readings can be large or run the other way;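 also: % of control where 0% means no effect; miR-21 action dims this reporter so a rising signal means less miR-21 action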
#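 Luminescence from a firefly luciferase reporter carrying a miR-21 binding site downstream, stably expressed under a CMV promoter in HeLa cells that make miR-21 endogenously, reports miRNA modulation after 48 h compound exposure up to approximately 40uM final.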
# Rango release inh: qHTS Assay for Inhibitors of RanGTP induced Rango (Ran-regulated importin-beta cargo) - Importin beta complex dissociation; Snurportin-1 (Homo sapiens) + GTP-binding nuclear protein Ran (Homo sapiens) + Importin …; Biochemical FRET Rango-importin beta, RanGTP-induced dissociation; Potency, µM (doses to about 46.1 µM), inactives show at the top dose activity change, negative = inhibition; 340,000 tested, 0.071% active; active means falling FRET ratio curve, often poorly fitted, with flat reads before Ran was added; inconclusive means other falling curves, or compound fluorescence or quenching; inactive means flat or rising ratio curve;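 also: potency is read from the fitted curve at half-maximal effect; % of control where 0% means no effect; nearly all actives have a fitted effect of over 45% in size; -100% = wells without RanGTP and RCC1; the record marks most hits as doubtful in a second field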
#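 Rango FRET biosensor (snurportin-1 IBB flanked by N-terminal EYFP and C-terminal CFP10) at 0.1 uM, with 0.25 uM importin beta in PBS, 1mM DTT, 0.02% Tween-20, 0.1% BSA. 0.6 uM Ran, 2mM GTP and 0.2 uM RCC1 were then added for 45 min at room temperature. Inhibition read as loss of FRET rise.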
# * = called active by the depositor; ? = inconclusive; · = not tested or not shown. Only part of the results is shown; the hit share may differ from the screen's.
Rango-impB inh,GLA inh pH 4.5,miR-21 FLuc,Rango release inh,SMILES
-0.2%,-23,-64%,-9%,O=C(Nc1ccc(CN2CCCCC2)cc1)Nc1ccccc1Cl
2.1%,·,·,-2%,Cc1ccc(CNC(=O)c2cc(-c3ccccc3C)nn2CC2CC(c3cccnc3)=NO2)cc1 (stereo not drawn)
-4.6%,-15,-19%,7%,Cn1cccc1C(=O)Nc1nccs1
0.2%,-10,-11%,10%,CCOc1ccc(NC(=O)c2cnsn2)cc1
1.2%,0,2%,-2%,O=C(NCCOc1ccc(Cl)cc1)C1CC(=O)N(c2ccc(F)cc2)C1 (stereo not drawn)
-0.5%,-1,1%,0%,COc1cccc(/C=C2\SC(=N)N(c3ccc(F)cc3)C2=O)c1
-3.9%,-14,-8%,4%,CC(/C=N/N1C(=O)CSC1=S)=C\c1ccccc1
-4.2%,-9,-4%,7%,CCOC(=O)c1cn(CC)c2ccc(Br)cc2c1=O
?,-5,-36%,-30%,Cn1c(CN2CCCC2)nc2cc(NC(=O)c3cccs3)ccc21
1.0%,3,-14%,2%,Cc1ccc(CC(=O)Nc2nc3ccccc3[nH]2)cc1C
-3.8%,·,1%,-3%,NC(=O)C1CCN(C(=O)C(=O)c2cn(CC(=O)N3CCCCCC3)c3ccccc23)CC1
0.7%,·,·,-10%,Cc1ccccc1OCCC(=O)OCC(=O)NC(=O)c1ccccc1
4.5%,-8,-19%,-18%,CC(C)OC(=O)c1cccnc1SCc1cc(=O)n2ccccc2n1
0.0%,5,19%,-7%,Cc1cc(C)c(C(=O)COc2cccnc2[N+](=O)[O-])cc1C
-0.7%,-1,-1%,3%,c1ccc(CN2CCOCCOCCOCCOCCOCCOCC2)cc1
-1.0%,8,5%,10%,O=C(c1cccc([N+](=O)[O-])c1)N1CCN(C(=O)c2ccco2)CC1
-0.8%,7,-20%,-13%,Cc1cc(Cl)ccc1OCCCC(=O)NCCN1C(=O)S/C(=C\c2cccnc2)C1=O
3.1%,·,·,-14%,CCN1C(=O)C(=O)N(CC(=O)Nc2ccccc2OC(F)F)C1=O
5.8%,1,-8%,-16%,COC(=O)c1c(NC(=O)Cc2ccccc2)sc(C)c1C
1.0%,·,·,10%,Cc1nc(SCC(=O)NCCN2C(=O)CSC2=O)nc(C)c1C
9.3%,11,-5%,1%,CCCCCCP(=O)(O)c1ccccc1
-0.1%,-13,1%,-14%,CCN(CC)S(=O)(=O)c1cccc(NC(=O)COC(=O)CCc2nc3ccccc3s2)c1
0.1%,1,-5%,10%,COc1ccc(C(=O)c2ccccc2)c(OCC(=O)N(C)C)c1
1.0%,0,-15%,-12%,Cc1noc(C)c1CSc1nnc(-c2cccnc2)n1C1CCCCC1C (stereo not drawn)
-1.4%,-5,2%,20%,Cc1cc(NC(=O)C2CCN(S(=O)(=O)c3cnc[nH]3)CC2)ccc1Br

# A draw from above in order of count of non-hydrogen atoms, highest first.
Rango-impB inh,GLA inh pH 4.5,miR-21 FLuc,Rango release inh,SMILES
0.7%,·,·,-10%,Cc1ccccc1OCCC(=O)OCC(=O)NC(=O)c1ccccc1
-0.5%,-1,1%,0%,COc1cccc(/C=C2\SC(=N)N(c3ccc(F)cc3)C2=O)c1
0.2%,-10,-11%,10%,CCOc1ccc(NC(=O)c2cnsn2)cc1

# (continued)
Rango-impB inh,GLA inh pH 4.5,miR-21 FLuc,Rango release inh,SMILES
0.2%,-10,-3%,?,COc1ccc(OC)c(S(=O)(=O)N2Cc3ccccc3CC2C(=O)O)c1 (stereo not drawn)
3.5%,·,-2%,-4%,O=C(CC(C(=O)O)c1ccc(Cl)cc1Cl)c1ccc(Cl)cc1 (stereo not drawn)
2.1%,·,·,-10%,CCCCN1CC(COCc2ccccc2)Oc2cccc(Oc3ccccc3)c2S1(=O)=O (stereo not drawn)
-3.6%,-4,2%,-15%,COc1cc(/C=C/C(=O)OCC(=O)Nc2sc3c(c2C#N)CCC(C)C3)ccc1OCC#N (stereo not drawn)
-2.5%,·,·,3%,O=C(NCCC1=CCCCC1)C1CCN(S(=O)(=O)c2ccccc2C(F)(F)F)CC1
?,·,0%,5.8µM*,COc1cc(/C=C2\C(=N)N3N=C(S(C)(=O)=O)SC3=NC2=O)ccc1OC(=O)c1ccco1
-0.2%,·,4%,23%,CCc1cc(C(=O)N2CCCC(C(=O)c3ccc(OC)c(F)c3)C2)n(C)n1 (stereo not drawn)
6.0%,·,0%,-9%,CCOC(=O)N1CCN(CCc2ccccc2)CC1
0.0%,-19,15%,0%,Cc1ccccc1C(=O)N1CCN(C(c2ccccc2)c2ccccc2)CC1
-0.2%,9,1%,0%,Cc1ccc(NC(=O)c2ccco2)c(NC(=O)C2CCCO2)c1 (stereo not drawn)
-6.8%,-3,17%,-4%,CC1=C(C(=O)OC(C)C)C(c2ccccc2Cl)CC(=O)N1 (stereo not drawn)
-3.8%,·,·,1%,O=C(CSc1ccccc1)Nc1cccc(S(=O)(=O)N2CCCCC2)c1
?,-8,-1%,-24%,Cc1cc(C)c(C)c(S(=O)(=O)N[C@@H](C)C(=O)OCc2cc(=O)n3cc(Br)ccc3n2)c1C
0.7%,?,-5%,12%,Cc1nnsc1C(=O)NNC(=O)Nc1ccccc1
-1.9%,·,·,-10%,O=C(C[C@H]1C[C@H](C(=O)N2CCOCC2)[C@@]2(CCC3CCCC3)c3[nH]c4ccc(Cl)cc4c3CCN2C1=O)NCCc1ccccn1
2.2%,-5,8%,-6%,COc1cccc(CNC(=O)CSCc2cnn(-c3ccccc3)c2-n2cccc2)c1OC
0.3%,?,0%,-4%,Cc1cccc(NC(=O)c2ccccc2-c2ccccc2)c1
0.4%,·,·,-11%,COc1ccc(C(=O)CCC(=O)Nc2ccc(N3CCN(C)CC3)cc2)cc1OC
-17%,·,·,30%,O=C(NCCCN1CCOCC1)C1CCN(S(=O)(=O)c2cccc(C(F)(F)F)c2)CC1
1.1%,·,·,17%,COc1cccc(NC(=O)CN(C)C(=O)c2c(-c3c(F)cccc3Cl)noc2C)c1
?,·,0%,-17%,Cc1oc(-c2ccccc2Cl)nc1CS(=O)(=O)CC(=O)NC1CCCC1
0.1%,-3,-3%,-2%,Cc1nn(Cc2cccc(C(=O)NC3CCCCC3)c2)c(C)c1Cl
-1.3%,·,-7%,-1%,COc1ccccc1/C=N/OCc1cc(C(C)=O)ccc1OC
1.4%,-4,-7%,6%,CC1CCN(S(=O)(=O)c2ccc3c(c2)c(=O)c(C(=O)NCc2cccs2)cn3C)CC1
-0.5%,-3,?,11%,CC(=O)n1cc([C@@H]2C=C(C(=O)N3CCN(Cc4ccc5c(c4)OCO5)CC3)O[C@H](OCc3ccc(CO)cc3)C2)c2ccccc21

# (listing goes on)
Rango-impB inh,GLA inh pH 4.5,miR-21 FLuc,Rango release inh,SMILES
-3.7%,·,·,7%,NS(=O)(=O)c1cc(C(=O)OCC(=O)NC2CCCCCCC2)ccc1Cl
-0.8%,-1,-40%,-9%,Cc1ccc(-c2nc3ccccc3n2C)o1
-3.2%,14,2%,-5%,NC(=O)c1nsnc1-c1ccccc1O
0.7%,·,·,-26%,C=CC(C)(C)c1c(O)c(CC=C(C)C)c(O)c2c(=O)c3ccc(O)c(O)c3oc12
-2.1%,·,·,1%,COc1ccc(C(=O)N2CCCN(C)CC2)cc1S(=O)(=O)N(C)Cc1ccccc1
1.0%,·,-9%,0%,COc1ccc(C2/C(=C(/O)c3ccc4c(c3)CC(C)O4)C(=O)C(=O)N2CCCN2CCOCC2)cc1 (stereo not drawn)
-1.9%,-7,-13%,14%,O=C(CS(=O)(=O)Cc1ccccc1)Nc1nc2c(s1)CCCC2
?,·,·,-22%,N#Cc1ccc(OCC(=O)Nc2cccc(S(=O)(=O)NC3=NCCCCC3)c2)cc1
?,-3,-16%,8%,Cc1cc(Nc2ccccc2)n(-c2ccccc2)n1
0.3%,·,-2%,4%,COc1ccccc1CN1CC(C(=O)NCCn2nc(C)cc2C)CCC1=O (stereo not drawn)
-3.1%,1,-9%,-6%,CCCOC(=O)c1ccc(NC(=O)c2cc(Cl)ccc2OC)cc1
0.6%,·,·,-4%,N#CC(=C(O)CN1CCN(c2ccccc2F)CC1)c1nc(-c2ccccc2)cs1
2.1%,·,·,-2%,CCN(CC)C(=O)Cn1c(=O)n(Cc2ccccc2Cl)c2c1c(=O)n(C)c(=O)n2C
·,-5,0%,·,CCOC(=O)Cc1nc2ccccc2o1
-0.6%,-6,-4%,-3%,COc1ccccc1C(=O)N1CCCN(C(=O)c2ccccc2OC)CC1
0.0%,-5,-1%,?,COc1ccc(-c2ccc(OC)c([C@H]3[C@H]4C=CC[C@@H](C)[C@@H]4C(=O)N3Cc3ccccc3)c2)cc1
6.1%,4,0%,-7%,NC(=O)c1ccccc1NC(=O)CCCN1C(=O)CCC1=O
3.9%,·,-2%,?,COc1ccc(NC(=O)CN(C)S(=O)(=O)c2ccc3[nH]c(=O)oc3c2)cc1
7.3%,·,-2%,12%,CC(=O)N1c2ccc(S(=O)(=O)N3CCCCC3)cc2CC1C(=O)NCc1cccc(Cl)c1 (stereo not drawn)
-2.8%,12,-3%,2%,COc1ccc(/C=N/N=C/c2ccc(OC)c(O)c2)cc1O
0.5%,7,-7%,9%,CCOc1ccc(NC(=O)CSc2nnc(-c3ccccc3)n2N)cc1
-1.7%,·,-11%,1%,O=C(CCc1ccc(O)c(O)c1)N/N=C/c1ccc2c(c1)OCO2
6.5%,1,-1%,-14%,CC(Oc1ccc(Cl)cc1Cl)C(=O)N(C)c1ccccc1 (stereo not drawn)
-1.3%,1,5%,-5%,Fc1ccc(-n2cc(CNCCc3ccncc3)c(-c3ccccc3Cl)n2)cc1
?,·,13%,?,CCN(CC)c1ccc(/C=N/n2c(C)nc3ccccc3c2=O)cc1

# (cont.)
Rango-impB inh,GLA inh pH 4.5,miR-21 FLuc,Rango release inh,SMILES
9.1%,3,-3%,-24%,C#CCn1c(=NC(=O)c2ccc(Br)s2)sc2cc(NC(C)=O)ccc21
0.6%,·,6%,10%,COc1ccc(CNC(=O)C2CCCN(S(=O)(=O)c3ccc(-n4cnnn4)cc3)C2)cc1 (stereo not drawn)
?,-9,18%,?,COc1cccc(/C=N/NC(=O)c2[nH]c(C)c(C(=O)N/N=C/c3cccc(OC)c3O)c2C)c1O
-2.7%,·,·,-4%,COC(=O)[C@]1(CC(C)C)N[C@H](c2ccc(-c3ccc(F)cc3)c(OC)c2)[C@@H]2C(=O)N(C)C(=O)[C@@H]21
0.0%,3,0%,8%,Cc1cc(C)n2nc(CC(=O)NC3CCCCCCC3)nc2n1
-5.5%,·,1%,4%,CN1C(=O)[C@H]2[C@@H](/C=C/c3ccccc3)N3C(=O)CN(Cc4ccccn4)C(=O)[C@@]3(C)[C@H]2C1=O
-3.8%,·,2%,1%,COc1cccc(C(=O)Nc2cc(C(=O)NCc3ccc(C)cc3)ccc2N2CCC3(CC2)CC(c2ccccc2)=NO3)c1
?,·,-8%,0%,Cc1nc(N)c(C#N)c(-c2ccc3c(c2)OCO3)c1C
1.5%,-1,-12%,5%,COc1cccc(OC)c1C(=O)Nc1cc(Cl)ccc1N1CCOCC1
-1.1%,-4,15%,2%,Cc1c(CNC(=O)c2nn3c(c2Cl)NC(c2ccccc2)CC3C(F)(F)F)cnn1C (stereo not drawn)
-4.2%,10,-2%,?,Cc1ccc(C)c(Cn2c(C(=O)OC(C)C)cc3c2ccn3C)c1
?,-6,0%,?,O=C1S/C(=C\c2ccc(N3CCOCC3)o2)C(=O)N1Cc1ccc(F)cc1
0.4%,·,2%,3%,COC(=O)c1ccccc1C(=O)N1CCC(CCC(=O)NC2CC2)CC1
2.3%,·,-1%,2%,COc1ccc(Cl)cc1S(=O)(=O)Nc1noc2ccccc12
-5.1%,-4,-18%,-6%,O=C(O)COc1c(-c2ccc(Cl)cc2)oc2ccccc2c1=O
